High-throughput results deposited in PubChem BioAssay by several laboratories.
HSV replic up: HSV replication enhancement; maximum fold increase; hit rate 0.005% among 220,000; HSV replication augmentation in cells, fold increase; AID 1956;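 active = peak rise of 1.5-fold or more in the series; tested in PC3 cells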;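 note: first round at 10 µM; read as green reporter fluorescence; hits show the peak of a series up to 25 µM; 1 = signal of infected wells without compound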
PKD1 kinase inh: inhibitors of human PKD1 kinase; PKD1 kinase fluorescence polarization assay; hit rate 0.056% among 200,000; Q15139; inhibition, %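 (about 10 µM by stock and volumes)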; AID 797;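 active = inhibition of 50% or more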;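 note: controls were vehicle for no effect and a reference inhibitor for full effect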
GALR2 agonist: agonists of human galanin receptor 2 (GALR2) | O43603 | hit rate 0.48% among 140,000 | activation, %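 (tested at 5 µM)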 | AID 803 | GALR2-expressing cells, agonist activation read-out;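 active = above mean plus 3 SD of all compounds, about 5% in these data, not always enough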;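 note: 0% = vehicle buffer wells and 100% = reference agonist at full effect; tested in CHO reporter cells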
Target sequence (O43603 whole entry, looked up): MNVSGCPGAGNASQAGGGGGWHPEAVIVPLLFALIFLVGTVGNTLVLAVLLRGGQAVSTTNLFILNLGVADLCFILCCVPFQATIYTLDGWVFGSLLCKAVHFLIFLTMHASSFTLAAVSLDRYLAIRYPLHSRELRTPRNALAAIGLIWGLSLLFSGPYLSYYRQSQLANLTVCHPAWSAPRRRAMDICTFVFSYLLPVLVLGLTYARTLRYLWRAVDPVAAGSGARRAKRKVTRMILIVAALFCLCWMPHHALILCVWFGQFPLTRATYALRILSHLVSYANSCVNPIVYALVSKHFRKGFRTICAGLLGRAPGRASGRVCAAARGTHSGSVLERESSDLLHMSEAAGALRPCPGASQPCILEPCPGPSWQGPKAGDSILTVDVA
INS promoter inh: TRM-6 insulin promoter activity inhibition; TRM-6 cells (human fetal islet line), insulin promoter-eGFP reporter, imaging; reporter expression induced with tamoxifen; inhibition, % at 2 µM; hit rate 0.9% among 130,000; AID 1273;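 active = inhibition above the mean plus 3 SD, with well images judged a real hit on visual review, cut at about 60% in these data, passing the limit was not always enough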
RGS16-Gao: RGS16-Galphao interaction regulator (human); binding response (% of control), % at 10 µM; hit rate 0.38% among 220,000; bead-based flow cytometry RGS16-Galphao binding, fluorescence; actives lie on both sides;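 active = below 25% or above 175%, edge rows of some plates excepted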;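 note: Galphao activated by GDP with aluminum fluoride before binding; 100% = wells without compound and 0% = beads without RGS; some results beyond the cut were filed as inactive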
Target sequence (O15492 whole entry, looked up): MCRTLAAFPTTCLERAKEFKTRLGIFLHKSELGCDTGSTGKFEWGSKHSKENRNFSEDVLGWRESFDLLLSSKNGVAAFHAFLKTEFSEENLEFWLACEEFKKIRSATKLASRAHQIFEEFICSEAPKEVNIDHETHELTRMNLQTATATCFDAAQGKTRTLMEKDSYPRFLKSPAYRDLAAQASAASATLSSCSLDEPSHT
Target sequence (P09471 whole entry, looked up): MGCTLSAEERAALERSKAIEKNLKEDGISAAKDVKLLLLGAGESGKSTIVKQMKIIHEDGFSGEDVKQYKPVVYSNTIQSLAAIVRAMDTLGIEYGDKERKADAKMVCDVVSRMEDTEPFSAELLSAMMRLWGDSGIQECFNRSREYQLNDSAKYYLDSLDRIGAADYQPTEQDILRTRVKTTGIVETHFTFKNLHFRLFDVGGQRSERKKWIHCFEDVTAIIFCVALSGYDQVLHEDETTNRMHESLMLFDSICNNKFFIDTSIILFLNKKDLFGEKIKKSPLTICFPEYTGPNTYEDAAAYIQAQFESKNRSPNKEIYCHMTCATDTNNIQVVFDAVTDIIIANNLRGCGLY
INS promoter inh cell count: further read-out of INS promoter inh, marked with its call; normalized cell count, %; measured here: cell count, toxicity; reference of the scale not given here;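 cells exposed to compound for 48 h; stained nuclei by imaging scaled within each plate; lower means fewer cells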
HSV replic up primary fold: second read-out of HSV replic up, no call of its own (marks repeat the call); fold increase; compound at 10 µM; measured here: primary screen fold increase 10 uM; tested in PC3 cells;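 GFP signal in the first replicate; 1 = infected wells without compound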
* hit, by the source's call; i = inactive; x = not tested or not shown.

Compound,HSV replic up,HSV replic up primary fold,PKD1 kinase inh,GALR2 agonist,INS promoter inh,INS promoter inh cell count,RGS16-Gao
Cc1cc2nc(-c3ccc(SCc4ccccc4C#N)nc3)[nH]c2cc1C,i,0.78,-1.6,-3.8,16.1,147.2,94.8
Cc1nc(-c2cn[nH]c2)c2cc(C)oc2n1,i,0.78,-18.1,-0.2,18.2,86.7,110.0
O=C(C1CC1)N1CCN=C1SCc1cccc(C(F)(F)F)c1,i,0.903,9.2,-1.2,x,x,107.0
COc1ccc(CCNC(=O)CSc2ccc(-c3cccs3)nn2)cc1,i,0.96,4.0,x,0.0,136.5,98.8
CC(=O)Oc1ccc(S(=O)(=O)c2ccc(OC(C)=O)cc2)cc1,i,0.91,1.0,x,-35.7,97.5,101.1
O=C(Nc1cccc(Cl)c1)NC1CC2CCC(C1)N2Cc1cccs1 (stereo unspecified),i,0.8,0.3,x,x,x,104.4
CCOC(=O)C(C(=O)OCC)C1CCS(=O)(=O)C1 (stereo unspecified),i,0.76,-0.8,-2.9,60.0,147.1,117.0
CC1CC(C)(C)CC2(C1)NC(=O)N(CC(=O)NCC(c1ccco1)N1CCCCC1)C2=O (stereo unspecified),i,0.9,5.2,-1.0,21.2,104.1,92.2
Nc1cnc(Nc2ccc(Br)cc2)nc1N,i,0.91,x,x,x,x,99.2
O=C(Nc1ccc(-c2ccc3nncn3n2)cc1)c1ccc(Br)o1,i,0.99,-1.7,x,16.7,135.2,91.5
CCN(CC)S(=O)(=O)c1cccc(C(=O)OCC(=O)Nc2ccccc2OC(F)F)c1,i,0.79,3.8,-1.6,2.7,68.2,99.5
Fc1ccccc1Cn1nnc2c(NCc3ccccn3)ncnc21,i,0.97,-10.9,-0.8,x,x,100.4
COc1ccccc1-n1c(SCC(=O)Nc2nnc(C)s2)nc2c(c1=O)SCC2,i,0.69,-3.8,-2.0,-30.2,105.2,96.6
NC(=O)/C(=C\c1ccccc1)NC(=O)/C=C/c1ccccc1,i,0.98,-6.5,0.3,9.1,107.6,108.5
CC1=C(C(=O)Nc2cccc(C)c2C)C(c2cccs2)NC(=S)N1 (stereo unspecified),i,1.04,3.1,-1.8,56.2,62.5,93.1
CCn1c(SCC(=O)N/N=C/c2ccccc2OCC(=O)O)nnc1-c1ccc(C)cc1,i,0.93,x,x,x,x,101.9
Fc1cccc(Cl)c1CSc1ccc(-c2ccco2)nn1,i,0.93,-1.2,x,58.3,149.8,105.9
CC(C)(C)C1=NN(C(=O)c2ccccc2)C(O)(C(C)(C)C)C1 (stereo unspecified),i,0.91,-15.1,-2.3,x,x,105.0
CCOC(=O)C[N+]1(C)CCN(C(C)=O)CC1,i,1.02,4.7,x,x,x,96.0
COCCn1c(SCC(=O)N2CCc3ccccc32)nc2c(c1=O)SC(C)C2 (stereo unspecified),i,0.59,x,x,x,x,102.0
Cc1ccc(-c2nnc(SC(C)C#N)n2N)cc1 (stereo unspecified),i,0.94,5.9,-1.4,x,x,104.0
CC(CC1CC(C)(C)OC1=O)C(=O)Nc1nncs1 (stereo unspecified),i,0.96,0.8,-1.3,-34.4,70.7,99.6
Cc1cc(C)n(-c2nc(C)nc3c2cnn3-c2ccccc2)n1,x,x,-17.1,-0.6,x,x,83.6
O=C(O)c1cnn2c(C(F)F)cc(C3CC3)nc12,i,0.9,-1.9,-2.0,-3.1,93.2,91.5
Cc1ccccc1OCC(=O)N/N=C/c1ccncc1,i,0.85,-6.2,-1.5,x,x,109.7
Cc1cc(NC(=O)c2cc(Cl)ccc2Cl)no1,i,0.91,3.4,-1.1,x,x,103.6
Cc1ccc(CC2C(=O)N(c3ncccn3)C(=O)C2C)cc1 (stereo unspecified),i,0.86,10.4,-1.8,x,x,104.1
Cc1ccccc1C1NC(=S)NC2=C1C(=O)CCC2 (stereo unspecified),i,0.99,5.7,x,-57.9,59.5,102.4
CCC(=O)Nc1ccc(C(=O)Cn2ncc(Cl)c(Cl)c2=O)cc1,i,0.64,x,x,x,x,99.4
CCCC(=O)Nc1nnc(-c2ccc3c(c2)OCO3)s1,i,1.04,x,x,x,x,97.5
O=C(NCc1ccccc1)C1CCCN(c2nc3ccsc3c(=O)s2)C1 (stereo unspecified),i,0.91,2.3,x,x,x,104.0
COc1cc2c(OC)cccc2cc1C(=O)O,i,0.96,-5.9,-2.1,57.1,188.4,93.1
CCOC(=O)C1CCCN(Cc2nc(C3CC3)no2)C1 (stereo unspecified),i,0.92,x,x,x,x,104.6
COCCNC(=S)NNc1ccccc1[N+](=O)[O-],i,0.96,0.7,x,42.9,105.6,101.2
CC1CN(c2ccc([N+](=O)[O-])nc2)CC(C)O1 (stereo unspecified),i,1.01,-8.0,x,41.7,155.6,106.5
COc1ccc(C(C#N)Nc2ccccc2)cc1 (stereo unspecified),i,0.96,-3.2,-1.2,22.2,85.3,97.1
COc1cc(OC)cc(C(=O)OCC(=O)Nc2ccc(N3CCCCC3)cc2)c1,i,1.1,6.5,-1.1,-54.8,119.2,102.8
CC(=O)Nc1ccc(S(=O)(=O)NNC(=O)COc2cccc(C)c2)cc1,i,0.87,-10.7,-2.0,x,x,96.5
CN(C)c1ccc(C2SCCN2C(=O)c2ccc([N+](=O)[O-])cc2)cc1 (stereo unspecified),i,1.06,0.1,-1.0,x,x,102.0
C=CCSc1cc(C)nc2c(-c3ccc(Cl)cc3)c(C)nn12,i,0.78,3.2,0.5,-18.8,63.4,99.3
NC(=O)C1CCN(C(=O)CSCc2ccccc2Cl)CC1,i,0.84,-0.7,-0.9,-114.3,128.7,100.4
O=c1[nH]ncn2cccc12,i,0.91,-19.0,24.6*,58.3,128.9,87.1
COc1ccc2nc(C)cc(Nc3ccc(N4CCOCC4)cc3)c2c1,i,0.86,-3.9,-1.5,-9.4,101.9,87.6
O=[N+]([O-])c1nn(-c2ccc(Cl)cc2)n(O)c1=NCc1cccnc1,i,0.94,0.7,0.1,6.9,120.2,68.4
O=C(c1ccc2c(c1)OCO2)N1CCN(c2ccc(F)cc2)CC1,i,0.71,-9.6,-1.8,x,x,102.3
Cc1cccc(NC(=O)Nc2cc(C)on2)c1,x,x,3.5,-1.7,-281.8,45.0,95.9
O=C1CC(/C=C/c2ccc(Cl)cc2)=Nc2ccccc2N1,i,0.9,-4.9,x,x,x,103.1
Cc1ccc(OCCN2CCN(C(=O)CCC(=O)Nc3nnc(C)s3)CC2)cc1,i,0.92,-7.3,0.3,-14.7,276.5,95.0
COc1cccc(OCc2cc(/C=N/NC(=O)c3ccn[nH]3)ccc2OC)c1,i,0.49,-18.5,0.9,x,x,100.1
O=C(Nc1cccnc1)C1CCCN(S(=O)(=O)c2cccc3nsnc23)C1 (stereo unspecified),i,0.97,-9.8,-3.0,42.4,133.8,85.9

Later entries.
Compound,HSV replic up,HSV replic up primary fold,PKD1 kinase inh,GALR2 agonist,INS promoter inh,INS promoter inh cell count,RGS16-Gao
Cc1ccc2c(c1)C=CC(C)N2C(=O)c1ccccc1 (stereo unspecified),i,0.95,-2.6,0.1,-27.0,130.7,100.5
CN(C)/C=N/c1c(C#N)cnn1-c1nc2ccccc2s1,i,0.8,-11.4,-1.8,-21.4,106.8,99.4
COc1cccc(/C=C/C(=O)c2cccc([N+](=O)[O-])c2)c1,i,1,4.9,x,-52.6,88.0,101.1
COC(=O)c1ccc(C(NC(=O)OCc2ccccc2)/C(C)=C/[C@@H](C)C(=O)NCc2ccc(-c3ccccc3)cc2)cc1 (stereo partly specified),i,0.81,-1.5,-2.2,0.0,99.7,99.5
CCN(CC)CCCn1c(=S)[nH]c2ncccc2c1=O,i,1.14,-0.1,-2.8,41.7,101.1,100.5
Cc1ccc(S(=O)(=O)N2CCOCC2)cc1NC(=O)COC(=O)C1COc2ccccc2O1 (stereo unspecified),i,0.97,-8.6,0.7,-60.0,96.2,106.4
CC(C)(C)CC(C)(C)NC(=S)Nc1ccc(S(=O)(=O)N2CCOCC2)cc1,i,0.86,-8.6,-0.7,46.7,169.4,98.3
Cc1cc(=O)[nH]c(SCCOc2cccc(C(F)(F)F)c2)n1,i,1.04,-1.5,-1.8,-214.3,124.9,99.3
CSc1ccc(Cl)c(C(=O)NCCOc2cc(C(C)C)ccc2C)c1,i,1.04,0.7,-2.8,-66.7,96.6,89.9
CCOC(=O)C1CCCN(CCC(=O)Nc2ccc(C)cc2)C1 (stereo unspecified),i,0.94,-3.5,-3.2,i,68.8,x
O=C(OCn1cncn1)c1ccc(Cl)cc1Cl,i,1.04,4.1,0.3,x,x,106.6
CCOc1ccc(OCC)c(N=c2oc3c(C)ncc(CO)c3cc2C(N)=O)c1,x,x,6.2,-0.6,x,x,92.9
COC(=O)c1cc2nc(-c3ccccc3)cc(C(F)(F)F)n2n1,i,1.02,0.1,-0.6,-23.8,113.0,x
CCOC(=S)SCC(=O)N1CCc2ccccc2C1C1C(=O)CCCC1=O (stereo unspecified),i,1.02,-11.0,-0.1,x,x,103.5
C/C(=N/NC(=O)C1CC1(c1ccccc1)c1ccccc1)c1cccs1 (stereo unspecified),i,1,-11.5,0.8,x,x,101.9
O=C(Cc1ccc(Cl)cc1)Nc1ccc(-c2nnc(-c3ccco3)o2)cc1,i,0.83,-7.7,1.7,x,x,99.8
CC(C)C[C@H](NC(=O)c1nc[nH]c1C(=O)NC1CCN(C(=O)OC(C)(C)C)CC1)C(=O)OCc1ccccc1,i,0.88,1.6,x,x,x,104.8
Cc1nn(C(C)C(=O)N2CCN(c3ccccn3)CC2)c(=O)c2cc3occc3n12 (stereo unspecified),i,0.9,-8.5,-0.5,x,x,125.5
COc1ccc(CC(=O)NNS(=O)(=O)c2ccc3ccccc3c2)cc1OC,i,1.01,-7.7,-1.6,-16.7,78.7,112.1
Cc1ccc(-n2nc3c(c2NC(=O)c2ccccc2Br)CS(=O)C3)cc1 (stereo unspecified),i,1,-6.9,-2.5,x,x,106.3
CC(c1nnc(SCC(=O)N2CCc3ccccc32)n1-c1ccc(Cl)cc1)N(C)C (stereo unspecified),i,0.96,-7.1,0.7,3.3,117.8,101.5
O=C(O)C1CC(=O)N(c2ccc3c(c2)OCCO3)C1 (stereo unspecified),i,1.02,-10.3,-1.1,17.4,88.7,99.2
Cc1ccc(Cl)cc1NC(=S)N(CCN(C)C)C(C)c1ccccn1 (stereo unspecified),i,1.11,-4.1,x,-50.0,70.2,104.9

3 compounds already listed, arranged by the number in RGS16-Gao, ascending.
| Structure | HSV replic up | HSV replic up primary fold | PKD1 kinase inh | GALR2 agonist | RGS16-Gao |
| --- | --- | --- | --- | --- | --- |
| O=C(Cc1ccc(Cl)cc1)Nc1ccc(-c2nnc(-c3ccco3)o2)cc1 | i | 0.83 | -7.7 | 1.7 | 99.8 |
| CCN(CC)CCCn1c(=S)[nH]c2ncccc2c1=O | i | 1.14 | -0.1 | -2.8 | 100.5 |
| Cc1ccc(-n2nc3c(c2NC(=O)c2ccccc2Br)CS(=O)C3)cc1 (stereo unspecified) | i | 1 | -6.9 | -2.5 | 106.3 |

In another format: entries from further up.
Order of values: HSV replic up	HSV replic up primary fold	PKD1 kinase inh	GALR2 agonist	INS promoter inh	INS promoter inh cell count	RGS16-Gao
COCCn1c(SCC(=O)N2CCc3ccccc32)nc2c(c1=O)SC(C)C2 (stereo unspecified)
→ i	0.59	x	x	x	x	102.0
Cc1ccc(-c2nnc(SC(C)C#N)n2N)cc1 (stereo unspecified)
→ i	0.94	5.9	-1.4	x	x	104.0

The order is random; any-hit rate near 1.3%.
